High-throughput results as filed in PubChem BioAssay.
CtBP-E1A inh – inhibitors of CtBP/E1A interaction. activity change, % (test concentration not listed). AID 651724. AlphaScreen GST-E1A/His-CtBP binding, 1536-well; stronger effect = lower value; control for the full effect not named in the record. 340,000 tested, 0.49% active; in the data active means activity change below about -65%; inconclusive means about -30% to -65%; inactive means above about -30%; also: % is scaled to controls: 0 for no effect and ±100 for the full control effect; compound concentration not given in the record
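AlphaScreen with 125 nM GST-E1A and 125 nM His-CtBP (5X stocks) in Tris pH 8.0, 300 mM NaCl, BSA, Tween 20, TCEP. Compounds preincubated 2 h at 37 deg C, then glutathione donor/nickel acceptor beads added for 1 h at 37 deg C in dark.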
gsp antag – antagonizes gsp, the McCune-Albright syndrome mutation; gsp-mutant cells, cAMP HTRF, 30 min; control for the full effect not named in the record; Potency, µM (titrated, usually from 76.9 µM), without a hit: top-dose activity change, negative = inhibition, actives largely listed as inhibitors; 340,000 tested, 0.4% active; active = falling curve of any shape with a large fitted effect; inconclusive = falling curve, mostly with a smaller effect; inactive = flat or rising curve; cell line not stated here;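 also: intracellular cAMP measured with PDE inhibitor Ro 20-1724 present during compound exposure; potency is read from the fitted curve at half-maximal effect; % is scaled to controls: 0 for no effect and ±100 for the full control effect; nearly all actives have a fitted effect of over 65% in size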
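Cells in G418 medium, seeded 16-24 h, 37C; buffer exchange to DPBS + 1 mM CaCl2, 0.5 mM MgCl2, 0.05% BSA; cpds in DMSO + […] (300 uM stock), 30 min 37C; HTRF cAMP detection.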
Sfp PPTase inh – blocks B. subtilis Sfp PPTase activity. Q9F4F7. Biochemical Sfp PPTase activity, qHTS. Potency, µM, for the others: max response, negative = inhibition, actives largely listed as inhibitors. 310,000 tested, 3.5% active. AID 1490; active = well fitted inhibition curve with a large enough effect; inconclusive = small, poorly fitted or top-dose-only effect, or another doubt; inactive = no such curve, though single readings can be large or run the other way;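 also: the enzyme is Sfp with the accession as filed and its product quenches rhodamine fluorescence; potency is read from the fitted curve at half-maximal effect; 0% = enzyme reaction without inhibitor and -100% = no enzyme wells; top concentration of the series not given in the record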
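With Hepes-Na pH 7.6 buffer containing 10 mM MgCl2, Sfp (15 nM) modified BHQ-2-YbbR (12.5 uM) using rhodamine-CoA (5 uM). Two reads 30 minutes apart at 525/598 nm yielded each well's rate.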
TRPV1 PAM – potentiators of human vanilloid receptor 1 (TRPV1); Q8NER1; AID 540277; potentiation, % at 8.33 µM; TRPV1-expressing cells, Fluo-8 calcium influx, capsaicin EC20 potentiation; host cell line not named in the record; control for the full effect not named in the record; 320,000 tested, 0.02% active; active means potentiation above 80%; inconclusive means 30% to 80%; inactive means below 30%; also: 0% is about no effect
Target sequence (Q8NER1 whole entry, looked up): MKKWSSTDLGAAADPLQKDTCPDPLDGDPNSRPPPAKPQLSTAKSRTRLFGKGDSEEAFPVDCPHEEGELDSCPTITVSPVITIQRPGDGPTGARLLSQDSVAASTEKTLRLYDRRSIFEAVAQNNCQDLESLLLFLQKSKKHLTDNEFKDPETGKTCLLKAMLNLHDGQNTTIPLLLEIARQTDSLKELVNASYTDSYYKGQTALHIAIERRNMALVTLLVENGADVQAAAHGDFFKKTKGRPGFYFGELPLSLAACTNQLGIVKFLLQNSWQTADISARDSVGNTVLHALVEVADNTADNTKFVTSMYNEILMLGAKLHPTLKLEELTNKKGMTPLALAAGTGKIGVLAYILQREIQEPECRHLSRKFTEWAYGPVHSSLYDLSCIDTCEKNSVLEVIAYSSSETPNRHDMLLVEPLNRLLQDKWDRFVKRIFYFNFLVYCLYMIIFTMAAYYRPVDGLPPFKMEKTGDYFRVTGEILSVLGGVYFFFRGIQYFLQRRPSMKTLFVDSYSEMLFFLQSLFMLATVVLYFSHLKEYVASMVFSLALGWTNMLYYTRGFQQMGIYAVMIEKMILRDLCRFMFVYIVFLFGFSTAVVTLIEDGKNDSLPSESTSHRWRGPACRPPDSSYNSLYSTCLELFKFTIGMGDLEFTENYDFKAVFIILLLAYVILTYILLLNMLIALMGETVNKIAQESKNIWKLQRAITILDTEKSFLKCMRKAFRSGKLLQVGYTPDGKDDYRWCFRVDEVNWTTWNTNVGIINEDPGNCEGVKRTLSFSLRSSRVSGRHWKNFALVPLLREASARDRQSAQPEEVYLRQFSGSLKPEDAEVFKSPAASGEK
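Fluo-8 calcium influx in TRPV1-expressing cells, kinetic read (ex 480/em 520 nm). Compound added and read 3 min for agonist activity, followed by capsaicin at EC20 final and 2 min further read for enhancement.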
ClpP mod – qHTS Assay for Activators of ClpP. AID 651965, 2013. ATP-dependent Clp protease proteolytic subunit (Bacillus subtilis (strain 168)), P80244. 340,000 tested, 1.9% active. purified B. subtilis ClpP, FRET peptide cleavage, 20 min. Potency, µM (highest dose often 57.5 µM), inactives show at the highest dose activity change, negative = active; active = well fitted falling curve with a large enough effect; inconclusive = small, poorly fitted or top-dose-only effect; inactive = no such curve, though single readings can be large or run the other way; also: potency is read from the fitted curve at half-maximal effect; the source files actives as falling curves though it sought activators and does not explain the sign; nearly all actives have a fitted effect of over 65% in size; many hits overshoot -100%
Target sequence (P80244 whole entry, looked up): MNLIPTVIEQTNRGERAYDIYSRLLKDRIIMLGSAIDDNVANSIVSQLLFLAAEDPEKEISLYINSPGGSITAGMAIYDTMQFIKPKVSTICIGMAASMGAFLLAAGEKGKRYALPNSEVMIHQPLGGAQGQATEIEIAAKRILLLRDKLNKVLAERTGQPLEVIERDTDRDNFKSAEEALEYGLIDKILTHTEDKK
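FRET quenching reversal measured ClpP activation: 10 microg/mL B. subtilis ClpP at pH 8 with the FRET-FV decapeptide, read at 430 nm after 320 nm excitation. The 20-min minus 0-min signal was scaled between DMSO/no-enzyme wells and ADEP (5.8 microM final).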
Menin-MLL FL inh – menin-MLL binding inhibition, fluorescein peptide; Fluorescence polarization, fluorescein-MLL peptide displacement from menin; FP activity change, % at 61.4 µM; 290,000 tested, under 10 active; inconclusive = falling polarisation curve, or a change in total fluorescence; inactive = total fluorescence flat and polarisation flat or rising; no compound was filed as active; the % refers to the polarisation; negative = inhibition;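 also: % of control where 0% means no effect; inhibitors lower the polarisation; unlabelled MLL peptide was the positive control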
gsp ag – activates gsp, the McCune-Albright syndrome mutation; gsp mutant cells, cAMP HTRF, 30 min; control for the full effect not named in the record; Potency, µM (highest dose often 76.9 µM), without a hit: at the highest dose activation (cAMP increase), most hits filed as activators; 340,000 tested, 0.13% active; active = well fitted activation curve with a large enough effect; inconclusive = small, poorly fitted or top-dose-only effect, or another doubt; inactive = no such curve, though single readings can be large or run the other way; cell line not stated here;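 also: phosphodiesterase inhibitor Ro 20-1724 added with compounds to block cAMP breakdown; potency is read from the fitted curve at half-maximal effect; nearly all actives have a fitted effect of over 60% in size; about a fifth of the inactives were tested at one dose only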
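Cells stably selected in G418 were plated at 2000/well, grown 16-24 hr, then given compounds in DMSO with the PDE inhibitor […] (300 uM solution added) for 30 min at 37C; cAMP was read by HTRF.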
* marks the source's active call; other numbers are inactive results; ? = inconclusive; . = no result given; & = joins results of further samples; [ ] = remark or other dose.

Below each compound: CtBP-E1A inh, gsp antag, Sfp PPTase inh, TRPV1 PAM, ClpP mod, Menin-MLL FL inh, gsp ag
- COc1ccccc1N1CCN(CC(O)COc2ccc(C)c(C)c2)CC1 (centres undefined)
 : -13.7, 6.1%, -3.4%, ?, ., -2.6, -10.3%
- CC(C)C1CC(C(F)(F)F)n2nc(C(=O)O)cc2N1 (centres undefined)
 : -10.4, ., 11.3%, -2.9, ., 0.0, -7.9%[15.4 µM]
- COc1cc(C(=O)NCC(=O)NCCN2C(=O)S/C(=C\c3ccc4c(c3)OCO4)C2=O)cc(OC)c1OC
 : -24.7, -6.9%, ., 8.7, -3.4%, ., 0.3%
- O=C(NNC(=O)c1ccc(Br)s1)c1cccc(Cl)c1
 : ., -4.6%, ., -20.3, -1.4%, ., -9.2%
- CCOc1ccc2nc(SCC#N)c(C#N)cc2c1
 : -9.8, 13.3%, 10.9%, 20.5, -28.3%, -0.8, 13.9%
- COC(=O)c1c(NC(=O)c2ccc(OC(C)C)cc2)sc2c1CC(C)(C)NC2(C)C
 : 4.2, 5.5%, 1.5%, 7.5, 4.8%, -0.2, 18.5%
- COc1ccc(C2=NOC(C(=O)NCc3cccnc3)C2)cc1 (centres undefined)
 : 0.5, 11.7%, 14.7%, -2.0, ., -6.4, -19.6%
- Cc1ccc(-c2nnc(CSc3nc(C(C)C)nc4sc(C)c(C)c34)o2)cc1
 : 0.1, 10.0%, 3.4%, ?, -0.1%, 7.4, -26.7%
- C/C(=N\Nc1ncc(Cl)cc1Cl)c1cccs1
 : ., ., 39.8µM*, 3.8, ., -24.5, .
- O=C(N/N=C/C(Cl)=C/c1ccc([N+](=O)[O-])cc1)C(=O)Nc1cccc(C(=O)O)c1
 : -92.1*, -2.3%, -28.6%, ., -0.2%, 11.4, ?
- Cc1cn(C(=O)c2cccc(Br)c2)c(C)n1
 : 3.7, -8.8%, 17.4%, -1.1, -1.4%, 1.1, -9.0%
- COc1ccc(CCNC(=O)CCCOc2ccc(Cl)cc2)cc1OC
 : 2.6, -2.0%, 7.9%, -11.3, -0.7%, -1.5, 4.1%[15.4 µM]
- O=C(COC(=O)CNC(=O)c1ccccc1)NCc1ccc2c(c1)OCO2
 : 0.8, 8.7%, ., ., 1.1%, ., -18.6%
- NC(=O)C1CCN(CCC(=O)Nc2cccc(Cl)c2)CC1
 : 10.0, 5.8%, 20.8%, -3.4, -0.2%, 2.0, -0.7%
- COC(=O)c1cccc(C23CC4(C2)[C@H](CN(CC2CCCCC2)[C@@H]4c2ccccc2)C3c2ccccc2)c1 (some centres undefined)
 : -2.7, -4.8%, 1.5%&-5.0%, -22.0, -1.4%, 13.2&11.0, .
- CCCCC(=O)Nc1ccc2c3c(cccc13)C(=O)N2CC
 : -4.6, -2.0%, 6.2%, 2.6, 0.2%, -2.0, ?
- Cc1ccc(-n2c(-c3ccco3)nc3c(cnn3-c3ccc(C)cc3)c2=O)cc1
 : -6.9, -2.5%, 3.4%, -13.1, -4.2%&-3.4%, 1.2, -41.5%
- COc1ccc2c(c1OC)C(=O)N1N=C(c3ccc(Cl)cc3)CC21 (centres undefined)
 : 4.1, -4.9%, -0.3%, -30.1, 0.2%, 1.1, -10.1%[15.4 µM]
- N#Cc1cccc(C(=O)OCC(=O)NCc2ccco2)c1
 : -24.4, -1.6%, 12.1%, 1.7, -1.6%, ., 24.0%
- O=C(COc1ccc(C(=O)NCCc2ccccc2)cc1)Nc1ccccc1
 : 14.9, -3.6%, 10.3%, 29.8, 3.1%, 1.9, -24.6%
- COc1ccc(NC(=O)/C=C/c2ccccc2)c([N+](=O)[O-])c1
 : 7.0, 13.1%, 2.8%, -18.4, -3.2%, 1.2, 25.1%
- CCSc1nc(N)c(NC(=O)c2ccc(Br)o2)c(=O)[nH]1
 : -0.6, -13.6%, 6.1%, -15.0, 0.5%, ., -12.9%[15.4 µM]
- CCOC(=O)C(=O)N1c2ccccc2C(N(C(=O)C(=O)OCC)c2ccccc2)CC1C (centres undefined)
 : 6.4, -3.7%, -2.4%, -23.4, ., -1.9, -18.0%
- CCn1c(CNC(=O)c2cccc(C)c2)nnc1SCC(=O)Nc1cccc(OC)c1
 : -2.7, -2.1%, 20.3%, -3.5, -2.2%, -0.7, -10.5%
- CC(=O)c1ccc(N(CC(=O)NCc2ccc3c(c2)OCO3)C(=O)c2csnn2)cc1
 : -3.1, -0.9%, 17.3%, -1.0, ., 2.1, 2.7%[15.4 µM]
- CC(C)n1ncc2c(C(=O)NCCc3ccc(F)cc3)cc(C3CC3)nc21
 : 9.0, ?, ., -3.1, 31.6µM*, ., 12.9%[15.4 µM]
- CCN1CCN(C(=O)/C=C/c2ccc(C)o2)CC1
 : -1.4, 11.1%, 39.8µM*, -6.9, -4.0%, ?, 2.3%
- CNC(=O)/C(C#N)=C/c1c(N2CCCCCC2)nc2c(C)cccn2c1=O
 : -11.6, -17.0%, 9.7%, -14.2, 3.7%, 1.3, 15.7%
- N#CC1=C(N)S[C@H](C(=O)C23CC4CC(CC(C4)C2)C3)[C@H]1c1ccncc1
 : -4.0, 4.4%, -63.4%, -16.3, -5.5%, 1.9, 17.6%
- C[C@H](CO)N1C[C@H](C)[C@H](CN(C)C(=O)c2ccc(N3CCN(C)CC3)cc2)OCc2cnnn2CCCC1=O
 : 2.6, ., ., ., 1.3%, ., 7.0%

3 compounds drawn at random from those above, as already listed:
Below each compound: CtBP-E1A inh, gsp antag, Sfp PPTase inh, TRPV1 PAM, ClpP mod, Menin-MLL FL inh, gsp ag
- COc1ccc2c(c1OC)C(=O)N1N=C(c3ccc(Cl)cc3)CC21 (centres undefined)
 : 4.1, -4.9%, -0.3%, -30.1, 0.2%, 1.1, -10.1%[15.4 µM]
- Cc1ccc(-n2c(-c3ccco3)nc3c(cnn3-c3ccc(C)cc3)c2=O)cc1
 : -6.9, -2.5%, 3.4%, -13.1, -4.2%&-3.4%, 1.2, -41.5%
- Cc1cn(C(=O)c2cccc(Br)c2)c(C)n1
 : 3.7, -8.8%, 17.4%, -1.1, -1.4%, 1.1, -9.0%

Next part.
Below each compound: CtBP-E1A inh, gsp antag, Sfp PPTase inh, TRPV1 PAM, ClpP mod, Menin-MLL FL inh, gsp ag
- COc1ccc2nc(Cl)c(/C=N/Nc3ccccn3)cc2c1
 : 4.3, 0.9%, 15.8µM*, 2.7, ., -4.0, -13.3%[15.4 µM]
- N/C(CC1CC1(Cl)Cl)=N\OC(=O)c1ccccc1 (centres undefined)
 : 14.4, 14.3%, 7.4%, -31.1, ., 1.2, 3.2%[15.4 µM]
- C[C@@H]1CN([C@@H](C)CO)C(=O)c2cc(NC(=O)Nc3ccc(F)cc3)ccc2O[C@@H]1CN(C)Cc1ccc(Oc2ccccc2)cc1
 : -13.7, 2.3%, ., ., ?, ., .
- O=C(OCCN1CCOCC1)c1ccc(O)cc1
 : ., 11.6%, 0.6%, ?, 0.3%, -1.4, 14.7%
- Cc1onc(-c2ccccc2)c1C(=O)NNC(=S)NC(=O)/C=C/c1ccccc1
 : 2.1, ?, 32.9%[activator], -12.9, -3.1%, 0.9, -6.4%
- Cc1cc(C)c2cc(CN(CCO)C(c3nnnn3Cc3ccc(F)cc3)C(C)C)c(=O)[nH]c2c1 (centres undefined)
 : ., ., -4.3%, 0.3, ., 1.8, .
- CCN1C[C@@H]2[C@@H]3C(=O)N(Cc4ccccc4)C(=O)[C@@H]3[C@](CC)(C1=O)N2C(=O)c1ccccc1
 : 2.4, 3.7%, ., ., -0.8%, ., .
- O=C(c1ccco1)N1CCN(C(=O)c2cc3sccc3n2Cc2ccccc2)CC1
 : -8.9, ?, -1.5%, -0.4, 0.3%, -2.3, 41.2%
- COc1cccc(/C=C/C(=O)OCC(=O)N2c3ccccc3CC2C)c1 (centres undefined)
 : ?, ., ., ., 4.0%, ., -15.9%
- COc1cc(OC)c(N(C)S(=O)(=O)c2cccc(C(=O)OCC(=O)N(C)C3CCCCC3)c2)cc1Cl
 : -12.7, -23.5%, ., ., -1.5%, ., ?
- CCO[C@@H]1OC(C(=O)N2CCN(Cc3ccccc3)CC2)=C[C@H](C2CC2)[C@H]1CCCO
 : 0.1, -6.6%, 4.6%, -9.0, 0.0%, -2.3, -2.3%
- CCn1c(SCC(N)=O)nnc1-c1ccc2c(c1)OCO2
 : 3.5, 4.9%, 16.9%, -10.2, -0.3%, 0.9, 3.7%
- Cc1cc(-c2ccc(C)c(S(=O)(=O)Nc3ccc(S(N)(=O)=O)cc3)c2)on1
 : -3.7, -5.6%, 15.1%, -15.9, 0.0%, 4.1, -56.4%[inhibitor]
- COc1ccc2nc(NC(=O)C3CCN(S(=O)(=O)c4cccc5nsnc45)CC3)sc2c1
 : ?, -27.3%, 2.1%, ., -5.5%, 1.3, -44.2%[inhibitor]
- CC(C)Oc1ccc(S(=O)(=O)N2CCOCC2)cc1NC(=O)C1CCCCC1
 : 5.2, -8.4%, ., -31.2, 0.2%, ., 20.7%
- CC(C)c1ccc(S(=O)(=O)N2CCN(C(=O)CN3C(=O)NC4(CCCCC4)C3=O)CC2)cc1
 : 0.5, 1.3%, ., 7.0, 0.6%, ., -0.3%[15.4 µM]
- N#Cc1ccsc1NC(=O)CSc1nnnn1-c1ccc(O)cc1
 : -9.1, -22.7%, -19.8%, 7.1, -3.3%, ?, -3.9%
- CSCCc1nc(SCC(=O)Nc2nnc(C)s2)[nH]c1C
 : 5.3, 7.5%[15.4 µM], -25.8%, -2.8, -2.9%, 0.6, -28.7%
- CC1CCCN(C(=O)Cc2ccc(F)cc2)C1 (centres undefined)
 : 6.1, -1.1%, 14.1%, 0.3, -3.3%, 0.0, 5.2%
- O=C(N1CCOCC1)N1CCN(c2ccccc2F)CC1
 : -1.4, -1.4%, -2.0%, -9.0, -4.5%, 3.3, ?
- Cc1cc(NC(=O)CCC(=O)N(CC(=O)NC2CCCC2)c2ccc(Cl)cc2)no1
 : 2.0, 5.4%, 12.2%, -6.1, ., 6.1, -1.1%
